VDR inh = vitamin D3 receptor (human) inhibition; P11473; VDR-SRC2-3 peptide fluorescence polarization, 2 h; Potency, µM, for the others: max response, negative = inhibition, hits mostly inhibitors; actives 0.93% (n = 400,000); AID 504847; active = well fitted inhibition curve with a large enough effect; inconclusive = small, poorly fitted or top-dose-only effect, or another doubt; inactive = no such curve, though single readings can be large or run the other way; note: series mostly up to about 120 µM
Target sequence (P11473 whole entry, looked up): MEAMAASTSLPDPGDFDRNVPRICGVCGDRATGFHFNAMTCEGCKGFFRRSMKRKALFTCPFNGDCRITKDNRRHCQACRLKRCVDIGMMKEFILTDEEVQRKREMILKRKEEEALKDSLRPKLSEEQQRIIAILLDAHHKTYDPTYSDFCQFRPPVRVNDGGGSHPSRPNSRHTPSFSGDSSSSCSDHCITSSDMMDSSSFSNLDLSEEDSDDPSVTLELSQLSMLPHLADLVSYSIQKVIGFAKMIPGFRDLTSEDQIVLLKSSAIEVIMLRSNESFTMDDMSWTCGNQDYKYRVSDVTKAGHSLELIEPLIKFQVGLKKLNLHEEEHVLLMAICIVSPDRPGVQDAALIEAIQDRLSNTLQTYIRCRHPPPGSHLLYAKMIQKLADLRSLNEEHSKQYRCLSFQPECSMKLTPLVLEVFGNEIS
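Fluorescence polarization assay measuring small-molecule disruption of VDR binding to the coregulator peptide SRC2-3. Compounds were pin-transferred (23 nl) into the reagent mix and incubated 2 h at room temperature before reading.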
* = called active by the depositor; ? = inconclusive; & = joins results of further samples. % is set by controls: 0 for no effect and ±100 for the full control effect; potency is the fitted concentration of half-maximal effect. A portion of the library; the hit share may differ from the screen's.

SMILES	VDR inh
Cc1noc(C)c1CSCC(=O)N(C)CC(=O)Nc1ccc(F)c(F)c1F	10.4%
COc1cccc(CNC(=O)Cn2nc(C)n3c(cc4cc(C)ccc43)c2=O)c1OC	-2.7%
Cc1cccc(OC(C)C(=O)N2CCN(Cc3ccc4c(c3)OCO4)CC2)c1 (stereo not given)	-9.9%
Cc1cc(C)n(C(=O)COc2ccc([N+](=O)[O-])cc2)n1	-12.4%
CCOc1ccccc1NC(=O)CN(c1ccc(OC)cc1OC)S(=O)(=O)c1ccccc1[N+](=O)[O-]	-1.0%
O=C(O)CSc1cccc2cccnc12	0.1%&4.0%
CCOc1cc(C(=O)Nc2c3c(nn2C(C)(C)C)CS(=O)C3)cc(OCC)c1OCC (stereo not given)	0.2%
Cc1ccc(-n2c3nc(=O)[nH]c(=O)c-3cc3cc([N+](=O)[O-])ccc32)cc1	?
O=C(CSCc1ccc([N+](=O)[O-])cc1)NC1CC2CCC1C2 (stereo not given)	-9.3%
CN(C)/C=N/c1ncc(C(=O)c2ccc(-c3ccccc3)cc2)s1	2.4%
COc1cc(C2NC(=O)NC(C)=C2C(=O)OCc2ccccc2)ccc1O (stereo not given)	15.3%
COc1ccccc1OCCCCCNCCO	-1.4%

Laid out differently: three of the compounds above
canonical_smiles: CN(C)/C=N/c1ncc(C(=O)c2ccc(-c3ccccc3)cc2)s1
- VDR inh: 2.4%
canonical_smiles: CCOc1cc(C(=O)Nc2c3c(nn2C(C)(C)C)CS(=O)C3)cc(OCC)c1OCC (stereo not given)
- VDR inh: 0.2%
canonical_smiles: COc1cc(C2NC(=O)NC(C)=C2C(=O)OCc2ccccc2)ccc1O (stereo not given)
- VDR inh: 15.3%

Next part
SMILES	VDR inh
COc1ccc(S(=O)(=O)Cc2ccc(C(=O)NCc3ccccc3OC)o2)cc1	-11.5%
COc1ccc(S(=O)(=O)Cc2ccc(C(=O)N3CCN(c4cccc(C)c4C)CC3)o2)cc1	-2.5%
CC1(NC(=O)c2cc(S(=O)(=O)N3CCCCC3)ccc2Cl)CCS(=O)(=O)C1 (stereo not given)	0.7%
COc1cc([N+](=O)[O-])ccc1NC(=O)C1CCCN(S(C)(=O)=O)C1 (stereo not given)	-1.5%
COC(=O)c1ccsc1NC(=O)CCS(=O)(=O)c1ccccc1	-0.2%
O=C1CCCC(O)=C1Sc1ccccc1C(=O)O	-15.7%
CCOC(=O)c1ccc(NC(=O)c2cn(-c3ccccc3)nc2-c2ccc(Br)cc2)cc1	4.1%
c1ccc(CNc2ccnc(-c3cccnc3)n2)cc1	39.8µM*
CC1CCCN(CC(=O)Nc2ccc(S(=O)(=O)N3CCCCC3)cc2)C1 (stereo not given)	-0.3%
COc1ccc(CNC(=O)C(C)Sc2ccc(C)cc2)cc1 (stereo not given)	-3.6%
c1ccc2cc3c(NCCN4CCOCC4)ccnc3cc2c1	-19.2%
COC(=O)c1ccc(CNC(=O)COC(=O)CC23CC4CC(CC(Br)(C4)C2)C3)cc1	0.0%

Six neighbouring entries from above, quoted:
SMILES	VDR inh
CCOC(=O)c1ccc(NC(=O)c2cn(-c3ccccc3)nc2-c2ccc(Br)cc2)cc1	4.1%
c1ccc(CNc2ccnc(-c3cccnc3)n2)cc1	39.8µM*
CC1CCCN(CC(=O)Nc2ccc(S(=O)(=O)N3CCCCC3)cc2)C1 (stereo not given)	-0.3%
COc1ccc(CNC(=O)C(C)Sc2ccc(C)cc2)cc1 (stereo not given)	-3.6%
c1ccc2cc3c(NCCN4CCOCC4)ccnc3cc2c1	-19.2%
COC(=O)c1ccc(CNC(=O)COC(=O)CC23CC4CC(CC(Br)(C4)C2)C3)cc1	0.0%

Later entries
SMILES	VDR inh
CC(CC(=O)NC1CCCC1)c1ccccc1 (stereo not given)	2.4%
CCCCNC(=O)n1c(SC)nc2ccccc21	-6.1%
O=C(CSc1nc2ccccc2s1)NNC(=O)Nc1ccc(Cl)c(Cl)c1	-1.7%
O=C(CN1C(=O)c2ccccc2C1=O)Nc1cccc(S(=O)(=O)Nc2ccccc2Cl)c1	1.3%
COc1cccc(-c2cc(C(F)(F)F)nc(N3CCOCC3)n2)c1	-8.8%
CC(C)(C)n1cnc2cc(NC(=O)c3ccc(Cl)cc3)ccc21	-3.9%
Cc1ccc(C(=O)Nc2nnc(Cc3ccccc3)s2)cc1	2.2%
CCOC(=O)c1ccc(N2C(=O)CC(N(C)Cc3ccccc3)C2=O)cc1 (stereo not given)	24.5%
CCOC(=O)c1cc(C(=O)OCC)c2cc(Br)ccc2n1	-10.4%
O=c1c(CCc2ccccc2)nc2cnc(N3CCOCC3)nc2n1C1CC1	-2.4%
Cc1ccc(C(=O)N/N=C\c2c(C)nn(-c3ccccc3)c2Cl)cn1	8.4%
CCc1ccc(NC2=NC(C(=O)NC3CCCCC3)CC(=O)N2)cc1 (stereo not given)	-3.4%
CC(C)Nc1ncnc2c1cnn2Cc1ccc(Cl)cc1	5.7%
CC1Sc2ccc(Cl)cc2-c2nc(N)ncc21 (stereo not given)	7.2%
CCOc1cccc2cc(-c3cn4c(n3)sc3cc(C)ccc34)c(=O)oc12	10.9%
O=C(NC(Cc1ccccc1)C(=O)O)/C(=C/c1ccc([N+](=O)[O-])cc1)NC(=O)c1ccccc1 (stereo not given)	-18.7%
COC(=O)C1CCN(C(=O)COC(=O)Cn2cnnn2)CC1	-10.8%
Cc1cc2ccccc2c(=O)n1CC(=O)NCC(=O)N1CCN(c2cccc(Cl)c2)CC1	-10.8%
c1ccc(CSc2ncnc3c2cnn3-c2ccccc2)cc1	1.3%
CSC1=NCCN1S(=O)(=O)c1ccc(F)cc1	-13.6%
CCN(Cc1ccccc1)C(=O)CN1C(=O)c2ccccc2C1=O	8.5%
COc1cccc(-n2c(-c3ccco3)nc3nc4ccccc4nc32)c1	8.2%
COC(=O)c1nnn(-c2ccc(Cl)c(Cl)c2)c1C(=O)OC	-6.6%
Cc1cc(C(=O)N2CCN(S(=O)(=O)c3ccccc3F)CC2)c(C)o1	-26.8%
CC(=O)Nc1ccc(C(=O)CSc2nnc3cc(C)c4ccccc4n23)cc1	13.2%
CCC(=O)Nc1nnc(SCc2ccccc2F)s1	-27.6%
Cc1cc(C)cc(N(C(C)C(=O)Nc2c(C)n(C)n(-c3ccccc3)c2=O)S(C)(=O)=O)c1 (stereo not given)	7.9%
Oc1c(C=NCc2ccccc2)sc2ccccc12	-6.2%
COc1cc(OC)cc(C(=O)N[C@H](C(=O)OCC(=O)c2ccc(F)cc2)C(C)C)c1	16.2%
COc1cccc(C(=O)OC(C)CN2CCCC2)c1 (stereo not given)	22.4%
CCOC(=O)c1cc(-c2ccc(OC)cc2)nc2c1c(C)nn2CCC#N	0.1%
CC1=CC(C)[C@H](/C=N/n2c(=O)[nH]c3c([nH]c4ccc(C)cc43)c2=O)C(C)C1 (stereo not given in full)	-9.7%
CCOc1cc(C(=O)Nc2cc(F)ccc2C)ccc1OCC(=O)N1CCOCC1	-18.7%
O=C(NCC(F)(F)F)N1CCOCC1	-6.6%
COc1ccc(NC(=O)c2c(C)oc3ccc(O)c(CN4CCN(Cc5ccccc5)CC4)c23)cc1Cl	13.6%
c1ccn(-c2ccc(-c3ccn[nH]3)cc2)c1	2.1%
O=C(Nc1ccc2c(c1)OCCO2)c1c(F)c(F)c(F)c(F)c1F	5.3%
Cc1ccc(C(=O)CCNc2ccc(Cl)cc2)o1	0.1%
Cc1c(C(=O)O)c(C(=O)O)c2n1CCS2	-11.5%
Cc1ccc(C(=O)N/C(=C/c2cccs2)C(=O)N2CCCCC2)cc1	-14.1%
CCN(CC)S(=O)(=O)c1nnc(NC(=O)c2ccc(C(C)C)cc2)s1	5.5%
O=S(=O)(c1ccc(Br)c2ccccc12)N1CCCC1	5.3%
COc1ccc(NC(=O)CSc2nc3nc(C)c(Cc4ccccc4Cl)c(C)n3n2)cc1OC	10.7%
C/C(=N\NC(=O)OC(C)(C)C)c1ccc[nH]1	0.0%
CS(=O)(=O)Nc1ccc(OCc2ccccc2)cc1	-3.0%
Cc1c(NC(=O)Cn2nc(C(=O)O)c3ccccc3c2=O)c(=O)n(-c2ccccc2)n1C	2.7%
COc1ccc(OCC(=O)OCC(=O)N2CC(=O)Nc3ccccc32)cc1	-2.1%
COCCCNC(=O)c1cc2c(=O)n3cccc(C)c3nc2s1	-4.8%&5.3%
Cc1onc(NC(=O)NC(=O)c2c(Cl)cccc2Cl)c1Br	-0.1%
CC1(c2ccc(Cl)cc2)NC(=O)N(CC(=O)Nc2ccc(N3CCCCC3)cc2)C1=O (stereo not given)	5.2%
COc1cccc(-n2c(=S)sc3c(=O)n(-c4ccccc4OC)c(SCC4OCCO4)nc32)c1	9.9%
O=C(CC1C(=O)NCCN1C/C=C/c1ccccc1)NCCCC1CCCC1 (stereo not given)	-8.8%
Cc1nnc(-c2ccc(N3CCCCCC3)c([N+](=O)[O-])c2)o1	0.9%
CSC1=C(C#N)C(CC(C)C)C(C(C)=O)=C(C)N1 (stereo not given)	-2.1%
Cn1c(N)c(C(=O)CSc2nc3ccccc3n2-c2ccccc2)c(=O)n(C)c1=O	18.1%
CC(C)(C)NC(=O)NC(=O)COC(=O)c1nc(-c2ccccc2)n(-c2cccc(C(F)(F)F)c2)n1	8.4%
COc1cccc(OCc2nnc(SCc3cc(=O)[nH]c4ccccc34)o2)c1	-13.8%
COc1ccccc1NC(=O)COC(=O)C12CC3CC(CC(Cl)(C3)C1)C2	-4.1%
CCOc1ccc(N2C(=O)C3ON(c4ccccc4)C(c4ccco4)C3C2=O)cc1 (stereo not given)	-10.7%
CCC1CO/C(=C(\C(=C(Cl)Cl)N2CCOCC2)[N+](=O)[O-])N1 (stereo not given)	1.4%
Additional structures:
SMILES	VDR inh
CC(Oc1ccccc1)C(=O)Nc1cccc([N+](=O)[O-])c1 (stereo not given)	5.1%
CCOC(=O)c1c(C)oc2ccc(NS(=O)(=O)c3ccc(C(=O)O)cc3)cc12	-9.5%
O=C(COc1ccccc1F)Nc1ccccc1C(=O)NC1CC1	25.9%
CCOC(=O)c1c(-c2ccc(OC)c(OC)c2)csc1NC(=O)C1CCCO1 (stereo not given)	7.8%
CCC(Cc1ccccc1)NC(=O)c1cccc(Nc2nc3ccccc3nc2-n2nc(C)cc2C)c1 (stereo not given)	-10.1%
O=C(NCCCN1CCOCC1)c1cc(-c2ccccc2F)no1	3.9%
O=C(Cn1c(=O)c2cccn2c2cccnc21)NCCCN1CCN(c2ccc(F)cc2)CC1	4.0%
CC(C)c1nnc(NC(=O)CCC(=O)NCC2CCCO2)s1 (stereo not given)	-3.7%
CC(=O)OCC(=O)C1(O)CCC2C3CCC4=CC(=O)CCC4(C)C3C(O)CC21C (stereo not given)	-6.9%
COc1ccc(Cc2c(N)nc(N)nc2N)cc1	21.5%
O=C(NC1CCCCC1)NC1CC2CCC(C1)N2Cc1nnnn1Cc1ccc2c(c1)OCO2 (stereo not given)	-1.8%
O=C(Nc1ccon1)c1cccc(Cl)c1	14.5%
Cc1sc(NC(=O)CSc2nnnn2C2CCCC2)c(C#N)c1C	8.4%
CC(c1nnc(SCn2nnc3ccccc3c2=O)n1-c1ccc(Cl)cc1)N(C)C (stereo not given)	-1.3%
COc1ccc([C@@H]2CC=C(C(=O)O)[C@H](c3cccc(Cl)c3)N2S(=O)(=O)c2ccc(C)cc2)cc1OC	-10.2%
COC(=O)N[C@H](CC(C)=O)c1cccc(C(F)(F)F)c1	8.7%
COc1ccc(C)cc1S(=O)(=O)N1CCC2(CC1)OCCN2S(=O)(=O)c1cccs1	1.3%
O=C(c1ccccc1)c1cnc(-c2ccc(Cl)cc2)s1	5.0%
N#CCN1C(=O)NC2(CCCc3sccc32)C1=O (stereo not given)	28.2%
CN(c1ccc(C(=O)NCCc2ccccc2)cc1)S(C)(=O)=O	-2.1%
COc1ccc(NC(=O)c2cnn(-c3ccccc3)c2C)cc1OC	-14.2%
COc1cc(C2SC[C@H]3C(=O)N(c4ccccc4)C(=O)N23)cc(OC)c1OC (stereo not given in full)	-6.5%
COc1ccc(CCN2C(=O)CC(Cc3ccc(Br)cc3)C2=O)cc1OC (stereo not given)	-25.5%
CC(NC(=O)CCC(=O)N1CCCCCC1)c1ccccc1 (stereo not given)	18.5%
O=C(NCc1ccccc1Cl)C1CCN(S(=O)(=O)N2CCCCC2)CC1	-16.8%
O=C1C=C(N2CCN(C3=CC(=O)CCC3)CC2)CCC1	9.9%
CC12CCC(=O)N1C(C(=O)Nc1ccc(Br)cc1Cl)CS2 (stereo not given)	-12.5%
COc1cc(CNc2ncn[nH]2)ccc1OCc1cccc(C)c1	-25.7%
O=C(O)Cc1sc(-c2ccccc2)nc1-c1ccccc1	21.9%
COc1ccc(-n2cnnc2SCC(=O)c2ccc(S(=O)(=O)N3CCOCC3)cc2)cc1	-2.1%
CCN(c1ccccc1)c1nnc(NC(=O)Nc2cccc(Br)c2)s1	19.6%
Cc1ccccc1C(=O)N(Cc1nc2ccccc2c(=O)[nH]1)C1CCCC1	0.0%
O=C(CN1CCOC1=O)N1CCCC(Nc2ccc(F)c(F)c2)C1 (stereo not given)	16.6%
CC(C)(O)CC[C@@H](O)[C@](C)(O)[C@H]1CC[C@@]2(O)C3=CC(=O)[C@@H]4C[C@@H](O)[C@@H](O)C[C@]4(C)C3CC[C@]12C (stereo not given in full)	2.2%
CC(C)c1ccc(OCC(=O)NCCO)cc1	?
CCCOc1ccc(N2C(=O)CC(N(CCc3ccccc3)C(=O)c3ccccc3)C2=O)cc1 (stereo not given)	3.7%
C=CCC[C@H](Cc1ccc(F)cc1)C(=O)OC[C@H]1CCCN1C(=O)[C@@H](CC=C)CC(=O)NCCO	5.1%
Cc1ccc(CN2CCN(C3CCN(S(=O)(=O)c4ccc(C)cc4)CC3)C(=O)C2=O)cc1	2.5%
CCCCCC(=O)NNC1=NCC(Cc2cccc(Cl)c2)S1 (stereo not given)	-7.6%
